# Source: PubChem BioAssay
# TRPML1 inh = human mucolipin-1 channel inhibition. Q9GZU1. TRPML1-inducible cells, Ca2+ dye fluorescence, FDSS; active compounds read low; inhibition of EC80 agonist-evoked calcium signal. activity change, negative = inhibition, % (no concentration beside the values). 0.02% of 390,000 active; in the data active means activity change below about -50%; inconclusive means about -30% to -50%; inactive means above about -30%;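 further: stimulus is agonist 54-4 at its EC80 concentration; on the % scale 0 is the no-effect control and ±100 the full control effect; compound concentration not given in the record; the text of the record puts the active cut at -80%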
# Target sequence (Q9GZU1 whole entry, looked up): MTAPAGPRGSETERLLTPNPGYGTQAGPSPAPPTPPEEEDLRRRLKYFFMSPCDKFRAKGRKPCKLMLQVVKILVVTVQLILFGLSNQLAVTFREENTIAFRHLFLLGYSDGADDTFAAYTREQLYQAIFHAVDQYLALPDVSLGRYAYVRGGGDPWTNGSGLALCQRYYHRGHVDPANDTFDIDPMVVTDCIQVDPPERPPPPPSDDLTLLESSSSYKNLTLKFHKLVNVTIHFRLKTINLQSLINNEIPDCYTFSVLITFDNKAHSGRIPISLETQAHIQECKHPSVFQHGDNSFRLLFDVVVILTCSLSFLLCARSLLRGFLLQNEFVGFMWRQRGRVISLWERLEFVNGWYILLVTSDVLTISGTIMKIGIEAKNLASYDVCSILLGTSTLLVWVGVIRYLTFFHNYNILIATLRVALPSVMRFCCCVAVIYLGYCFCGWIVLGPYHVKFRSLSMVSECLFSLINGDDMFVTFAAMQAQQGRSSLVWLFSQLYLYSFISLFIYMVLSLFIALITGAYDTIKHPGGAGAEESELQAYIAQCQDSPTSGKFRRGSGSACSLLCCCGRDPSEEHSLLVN
#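 Calcium fluorescence in TRPML1-DL cells induced overnight with Tet: a 110 s read after compound pin addition, then a 110 s antagonist read after challenge with 54-4 at 4 uM final (EC80).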
# Menin-MLL FL inh = menin-MLL binding inhibition, fluorescein peptide. Fluorescence polarization, fluorescein-MLL peptide displacement from menin. FP activity change, % at 61.4 µM. 290,000 tested, under 10 active. AID 1766; inconclusive = falling polarisation curve, or a change in total fluorescence; inactive = total fluorescence flat and polarisation flat or rising; no compound was filed as active; the % refers to the polarisation; negative = inhibition;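 further: % of control where 0% means no effect; inhibitors lower the polarisation; unlabelled MLL peptide was the positive control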
# TRPML1 agonist = agonists of human TRPML1 channel; Q9GZU1; 0.12% of 410,000 active; TRPML1-expressing cells, Ca2+ dye fluorescence, FDSS; host cell line not named in the record; reference of the full effect not given here; activation, % (no concentration beside the values); in the data active = activation above about 50%; inconclusive = about 30% to 50%; inactive = below about 30%; further: 0% is about no effect; the text of the record puts the active cut at 80%
#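 Kinetic FDSS Ca2+ read in Tet-induced TRPML1-DL cells (ABD Ca8 dye plus quencher, 45-90 min RT loading): baseline, then compound, then 110 s agonist window; EC80 agonist 54-4 at 4uM final added afterwards for a 110 s antagonist window.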
# gsp ag = gsp mutant agonism; 0.13% of 340,000 active; AID 624287; gsp mutant cells, cAMP HTRF, 30 min; control for the full effect not named in the record; Potency, µM (doses to about 76.9 µM), for the others: at the top dose activation (cAMP increase), hits mostly activators; active = well fitted activation curve with a large enough effect; inconclusive = small, poorly fitted or top-dose-only effect, or another doubt; inactive = no such curve, though single readings can be large or run the other way; cell line not stated here;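 further: phosphodiesterase inhibitor Ro 20-1724 added with compounds to block cAMP breakdown; potency means the concentration at half of the fitted maximal effect; nearly all actives have a fitted effect of over 60% in size; about a fifth of the inactives were tested at one dose only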
#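 Cells stably selected in G418 were plated at 2000/well, grown 16-24 hr, then given compounds in DMSO with the PDE inhibitor […] (300 uM solution added) for 30 min at 37C; cAMP was read by HTRF.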
# ClpP mod = qHTS Assay for Activators of ClpP | ATP-dependent Clp protease proteolytic subunit (Bacillus subtilis (strain 168)), P80244 | purified B. subtilis ClpP, FRET peptide cleavage, 20 min | Potency, µM (series often up to 57.5 µM), for the others: at the highest dose activity change, negative = active | 1.9% of 340,000 active | AID 651965, 2013; active = well fitted falling curve with a large enough effect; inconclusive = small, poorly fitted or top-dose-only effect; inactive = no such curve, though single readings can be large or run the other way; further: potency means the concentration at half of the fitted maximal effect; the source files actives as falling curves though it sought activators and does not explain the sign; nearly all actives have a fitted effect of over 65% in size; many hits overshoot -100%
# Target sequence (P80244 whole entry, looked up): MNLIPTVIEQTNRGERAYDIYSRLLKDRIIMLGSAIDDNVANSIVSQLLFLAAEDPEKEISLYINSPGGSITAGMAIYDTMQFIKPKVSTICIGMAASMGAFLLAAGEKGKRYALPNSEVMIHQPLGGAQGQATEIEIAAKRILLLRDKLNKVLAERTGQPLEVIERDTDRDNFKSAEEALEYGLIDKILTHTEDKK
#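 FRET quenching reversal measured ClpP activation: 10 microg/mL B. subtilis ClpP at pH 8 with the FRET-FV decapeptide, read at 430 nm after 320 nm excitation. The 20-min minus 0-min signal was scaled between DMSO/no-enzyme wells and ADEP (5.8 microM final).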
# gsp antag = antagonizes gsp, the McCune-Albright syndrome mutation | Potency, µM (series often up to 76.9 µM), without a hit: top-dose activity change, negative = inhibition, actives largely listed as inhibitors | 0.4% of 340,000 active | AID 624288 | gsp-mutant cells, cAMP HTRF, 30 min; control for the full effect not named in the record; active = falling curve of any shape with a large fitted effect; inconclusive = falling curve, mostly with a smaller effect; inactive = flat or rising curve; cell line not stated here;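 further: intracellular cAMP measured with PDE inhibitor Ro 20-1724 present during compound exposure; potency means the concentration at half of the fitted maximal effect; on the % scale 0 is the no-effect control and ±100 the full control effect; nearly all actives have a fitted effect of over 65% in size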
#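 Cells in G418 medium, seeded 16-24 h, 37C; buffer exchange to DPBS + 1 mM CaCl2, 0.5 mM MgCl2, 0.05% BSA; cpds in DMSO + […] (300 uM stock), 30 min 37C; HTRF cAMP detection.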
# Starred values were filed as active, the others as inactive; ? = inconclusive; / = no result given; [ ] = dose if it differs, or a comment.
SMILES,TRPML1 inh,Menin-MLL FL inh,TRPML1 agonist,gsp ag,ClpP mod,gsp antag
O=C(NC1(C(F)(F)F)NC(=O)N(c2ccc(F)c(Cl)c2)C1=O)c1ccncc1 (stereo unspecified),8,-1.1,-0.3,12%,-0.1%,-9%
CC1CN(S(=O)(=O)c2ccc(C(=O)NN3CCN(C)CC3)cc2)CC(C)O1 (stereo unspecified),7,6.7,0.3,-16%,/,2%
COc1ccc([C@@H]2[C@@H]3C(=O)N(C(C)(C)C)C(=O)[C@@H]3[C@]3(Cc4ccccc4)C(=O)N(c4cccc(C)c4)C(=O)N23)cc1,1,/,0.6,-2%,-3.8%,4%
CC(C)CNC(=O)COC(=O)c1c2c(nc3ccccc13)/C(=C/c1cccs1)CC2,-5,?,2.0,20%[15.4 µM],-0.5%,2%
Cc1ccc(C(=O)N(CC#N)CC#N)cc1C,11,1.4,1.5,11%,/,1%
CSc1nnc(NC(=O)c2ccc3c(c2)OCO3)s1,14,-1.8,-0.9,-2%,-2.1%,-1%
COc1ccc(C2=NOC(C(=O)NCCN3CCOCC3)C2)cc1 (stereo unspecified),2,4.1,0.4,5%,-1.0%,6%
O=C(NN1C(=O)C2C(C1=O)C1C=CC2C12CC2)c1cccnc1 (stereo unspecified),6,-5.9,0.2,-2%[15.4 µM],/,21%
OCC1OC(Oc2c(Br)cc(Br)cc2Br)C(O)C(O)C1O (stereo unspecified),5,/,-0.9,-56%[inhibitor],/,-5%
O=C(NCc1ccccn1)C(=O)C1C(=O)Nc2ccccc21 (stereo unspecified),-10,3.7,0.0,-36%,-1.7%,-4%
O=C(NCCO)C(=O)NCC(c1cccs1)S(=O)(=O)c1ccc(F)cc1 (stereo unspecified),18,/,-0.2,-53%[inhibitor],1.5%,/
CC(C)NC(=O)c1ccc(CS(=O)(=O)c2ccc(Br)cc2)o1,0,-2.9,0.2,16%,0.1%,-3%
Cc1ccc(S(=O)(=O)/N=C/c2ccco2)cc1,12,-0.7,-0.2,?,-2.4%,-1%
O=C(CSc1nnc2ccccn12)NNC(=O)c1ccc([N+](=O)[O-])cc1,1,1.4,0.8,-33%[inhibitor],-1.8%,-14%
Cc1ccc2cc(CCNC(=O)c3cccc([N+](=O)[O-])c3)c(=O)[nH]c2c1C,15,5.7,-0.2,-2%[15.4 µM],-3.1%,3%
CCCCS(=O)(=O)N1CCCC(C(=O)Oc2ccc(Cl)cc2)C1 (stereo unspecified),28,-2.7,0.9,-8%[15.4 µM],-1.3%,-5%
COc1cccc(C2=NOC(C(=O)NCc3ccccn3)C2)c1 (stereo unspecified),-4,0.8,-0.3,6%,-4.4%,7%
CCOc1cc(/C=C(/C#N)c2nc3ccccc3[nH]2)ccc1Oc1ccc([N+](=O)[O-])cn1,-2,5.6,1.2,-15%,2.3%,-1%
Cn1c(SCC(=O)Nc2cccc(F)c2)nc2c([nH]c3ccccc32)c1=O,3,1.9,-0.2,-36%[inhibitor],-17%,-11%
Cc1ccc2nc(N(CCCN(C)C)C(=O)c3ccc(S(=O)(=O)N4CCOCC4)cc3)sc2c1,-17,0.0,1.1,7%,-2.7%,-1%
C/C(CC(=O)Nc1ccc(F)cc1)=N\NC(=O)c1ccccn1,19,1.9,-0.2,-1%[15.4 µM],1.1%,7%
CC1=NOC(=O)/C1=C\c1ccccc1,-14,5.3,0.2,19%[15.4 µM],/,3%
CCOC(=O)c1nnsc1C(OC)Oc1ccccc1 (stereo unspecified),28,/,1.8,0%[15.4 µM],-4.6%,3%
O=C(N/N=C/c1ccco1)c1cccc(S(=O)(=O)Nc2ccccc2Cl)c1,14,8.7,0.1,4%,1.7%,-16%
CCOc1ccc(-n2c(SCc3nc(-c4cccs4)no3)nnc2-c2ccncc2)cc1,35,4.2,2.4,-20%,0.4%,-19%
CNC1(c2nnnn2-c2ccccc2C)CCOC(C)(C)C1 (stereo unspecified),/,2.6,/,-16%,0.2%,7%
COc1ccc(Cl)cc1NC(=O)CN1C(=O)CC(C)S(=O)(=O)c2ccccc21 (stereo unspecified),4,6.8,-0.3,-2%[15.4 µM],/,/
Clc1cccc(CSc2nnc(-c3c[nH]c4ccccc34)o2)c1,4,0.0,-0.6,-42%,0.7%,?
CC1(NC(=O)CC(c2ccccc2)(c2ccccc2)c2ccccc2)CCN(CCCc2ccccc2)C1=O (stereo unspecified),10,/,0.7,-6%,-0.2%,-29%
CCCN(CCC)CCCNC(=O)c1cc2cc3ccc(OC)cc3nc2o1,18,-1.8,0.9,?,216%,18%
COc1ccc(C(=O)Cn2c(C(C)=O)nc3ccccc32)cc1,32,/,0.7,-7%,25%,-20%
COc1cc(C(=O)N2CCN(C(=O)C3COc4ccccc4O3)CC2)cc(OC)c1OC (stereo unspecified),9,/,-0.7,14%,0.4%,-7%
Cc1cc(OC(C)C(=O)N2CCN(c3ccc(F)cc3)CC2)c2c(C)c(C)c(=O)oc2c1 (stereo unspecified),-3,1.1,-0.7,-1%,-18%,5%
O=C(Cc1nnc(NC(=O)c2cccc([N+](=O)[O-])c2)s1)NCc1ccccc1,29,/,1.0,11%,-2.0%,-4%
CNC(=O)c1c(NC(=O)c2cc(-c3cc(C)c(C)cc3O)n[nH]2)sc2c1CCCC2,25,2.9,0.4,-4%,-4.8%,-19%
CC(C)(C)c1ccc(/C=C/C(=O)NCCCN2CCOCC2)cc1,-7,-3.7,-0.6,-2%[15.4 µM],-4.5%,12%
CCCCN=C(NNc1ccc(Br)cc1)C(=O)OCC,-2,2.9,2.2,-22%,1.5%,8%
COC(=O)CCS(=O)(=O)c1ccc(Cl)c(Cl)c1,12,0.8,-0.8,2%,1.2%,10%
Cc1cccc(Nc2ncnc3nc[nH]c23)c1C,-13,6.2,-0.8,15%,-0.6%,3%
Cc1c(C(=O)N2C[C@@H](C)O[C@@H](C)C2)oc2c(F)cccc12,-6,-0.9,-0.8,-16%,2.4%,-2%

# Profiles as entered above. Screens in order: TRPML1 inh | Menin-MLL FL inh | TRPML1 agonist | gsp ag | ClpP mod | gsp antag
# CC1(NC(=O)CC(c2ccccc2)(c2ccccc2)c2ccccc2)CCN(CCCc2ccccc2)C1=O (stereo unspecified) across the screens: 10 | / | 0.7 | -6% | -0.2% | -29%
# CC(C)(C)c1ccc(/C=C/C(=O)NCCCN2CCOCC2)cc1 across the screens: -7 | -3.7 | -0.6 | -2%[15.4 µM] | -4.5% | 12%
# COC(=O)CCS(=O)(=O)c1ccc(Cl)c(Cl)c1 across the screens: 12 | 0.8 | -0.8 | 2% | 1.2% | 10%
# CNC(=O)c1c(NC(=O)c2cc(-c3cc(C)c(C)cc3O)n[nH]2)sc2c1CCCC2 across the screens: 25 | 2.9 | 0.4 | -4% | -4.8% | -19%
# CCCN(CCC)CCCNC(=O)c1cc2cc3ccc(OC)cc3nc2o1 across the screens: 18 | -1.8 | 0.9 | ? | 216% | 18%

# Further results:
SMILES,TRPML1 inh,Menin-MLL FL inh,TRPML1 agonist,gsp ag,ClpP mod,gsp antag
O=C(Cc1cccs1)NCc1cccc(F)c1,2,-0.5,0.1,-11%,0.6%,13%
Cc1cccc(NC(=O)CCS(=O)(=O)c2ccc3c(c2)oc(=O)n3C)c1,-9,/,-0.1,17%,/,4%
CCOC1=C2[C@H](c3cccc(Cl)c3)N(S(=O)(=O)c3ccc(C)cc3)C[C@H]2n2c(=O)n(-c3ccccc3)c(=O)n2C1,-24,/,1.7,/,-3.7%,/
CN1CCCN(CC(O)COCc2cccs2)CC1 (stereo unspecified),-16,-0.6,-0.7,9%,-0.3%,-3%
Cc1cc(=O)c2c(=O)[nH][nH]c2[nH]1,2,/,-0.6,14%,-6.2%,/
Cn1c(=O)c2c(nc(NCC3CCCO3)n2Cc2cccc(Br)c2)n(C)c1=O (stereo unspecified),7,4.9,-1.4,?,-3.1%,3%
COc1cccc(C2CC(c3ccccc3)Nc3nc(N)nn32)c1 (stereo unspecified),0,0.9,1.2,0%,1.0%,1%
COCCCNC(=O)CN(c1cccc(Cl)c1C)S(C)(=O)=O,95,0.9,0.3,0%,1.9%,10%
O=C(NCC1CCCO1)c1ccc(COc2ccccc2Br)cc1 (stereo unspecified),16,-0.6,0.0,2%[15.4 µM],0.5%,-2%
COc1ccccc1N(CC(=O)Nc1ccccc1)S(=O)(=O)c1cccs1,-20,/,1.4,-9%,-11%,-8%
CCCCn1c(=O)c(CCC(=O)OCC(=O)Nc2cc(Cl)ccc2OC)nc2ccccc21,-3,5.9,-0.3,-31%[inhibitor],-9.1%,-15%
c1csc(CNCc2ccncc2)c1,28,-2.6,-0.4,-2%,/,10%
O=C(NCC1(N2CCOCC2)CCCCC1)c1ccc(Cl)c(S(=O)(=O)NCc2ccco2)c1,-4,0.7,-1.3,-28%,-0.8%,-24%
CC(C)Cc1nn2c(=O)cc(COC(=O)c3cccc(NC(=O)c4ccccc4)c3)nc2s1,0,/,0.4,/,2.7%,/
COc1ccc(C(=O)NCC(=O)N2CCN(C(=O)c3ccco3)CC2)cc1OC,10,/,0.9,9%[15.4 µM],-0.4%,-5%
CC(C)NC(=O)CCCOc1ccc(Cl)cc1Cl,-7,-0.4,-0.1,-26%,0.2%,4%
Cc1cc2occ(CC(=O)Nc3nccs3)c2cc1C(C)C,-11,4.9,2.8,-69%[inhibitor],0.6%,7%
CC(OC(=O)/C=C/c1cccs1)C(=O)NC1CCCCC1C (stereo unspecified),-19,/,-0.2,15%,-0.3%,-1%
COc1ccc(C2c3c(-c4ccccc4O)n[nH]c3C(=O)N2CCc2ccc(OC)c(OC)c2)cc1 (stereo unspecified),-1,4.2,0.5,-1%,-3.1%,-12%
NC(=O)c1cc(S(=O)(=O)N2CCOCC2)ccc1Sc1ccccc1N,-14,/,0.2,22%[15.4 µM],/,10%
CCN(CC)S(=O)(=O)c1cc(NC(=O)c2ccc(-n3cncn3)c([N+](=O)[O-])c2)ccc1C,20,/,-0.1,-1%,-1.7%,?
C=C(C)COc1ccc(-c2n[nH]c(C)c2-c2ccccc2OC)c(O)c1,-10,2.9,1.7,-15%,-6.0%,-8%
CCNC(=O)CSc1nnc(-c2ccccc2)n1-c1ccc(OCC)cc1,22,2.8,0.7,-2%,0.3%,-2%
CCS(=O)(=O)N1CCC(C(=O)NCc2ccc(F)cc2)CC1,-1,2.3,0.2,14%,1.3%,13%
Cc1cccc(NC2(C(=O)O)CCCC2)c1,-10,/,0.9,17%,/,-5%
Cc1cc(C)cc(N(CC(=O)Nc2ccccc2C(=O)N2CCOCC2)S(C)(=O)=O)c1,-6,0.2,0.6,4%,2.4%,1%
NC(=O)c1ccc(NC(=O)CSc2nnc(-c3ccc4c(c3)OCO4)o2)cc1,16,/,3.2,?,-16%,5%
COc1ccccc1C#Cc1cnc2c(c1)C(=O)N([C@H](C)CO)C[C@H](C)[C@@H](CN(C)S(=O)(=O)c1cn(C)cn1)O2,3,/,-0.4,17%,-27%,/

# Hits appear at their usual frequency. About 2.1% of those tested had a hit in this group.
